RN4220 kill: kills Staphylococcus aureus RN4220 | S. aureus RN4220 growth, OD600, 16 h | AID 1259311 | inhibition, % (test concentration not listed) | hit rate 0.33% among 330,000;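 active = z-score of -3 or lower and OD600 up to 0.18 on both plates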;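 also: plate controls were untreated cells for no effect and reference antibiotic for full effect; stock transfer was 100 nL into about 80 µL; one replicate is shown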
PrP 5UTR inh: inhibition of PrP 5' UTR reporter expression; cell-based PrP 5' UTR mRNA reporter, plate reader; inhibition, % (no concentration beside the values); hit rate 0.35% among 340,000;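 active = every replicate at 50% or more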;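 also: 0 = median of the neutral control wells; tested in H4 reporter cells; numbers are from one replicate; inactives centre near -14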
ugtP null kill: growth inhibition of S. aureus ugtP deletion strain; S. aureus RN4220 ugtP deletion, OD600 growth, 16 h; some inactives read as strong as hits; growth inhibition, % (concentration not given with the values); hit rate 0.54% among 330,000; AID 1259309;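 active = z-score under -3 and OD600 up to 0.15 on both plates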;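 also: plate controls were untreated wells for no effect and antibiotic for full effect; wells of about 80 µL received 100 nL stock; the first replicate is given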
Autofluor counter: flagged as autofluorescent in microsphere protease counterscreen | AID 624483 | compound autofluorescence counterscreen, microsphere flow cytometry; hits give high values | fluorescence intensity (test concentration not listed) | hit rate 3.1% among 360,000;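 active = at least 3 SD above the mean of all compounds, about 16000 in these data; inconclusive = too few beads counted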;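 also: 100 nL of 1 mM stock went into each well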
BJeLR viability: kills HRASV12-expressing BJeLR cells | BJeLR (HRASV12) viability, CellTiter-Glo ATP luminescence, 48 h; reference of the scale not given here | inhibition, % (test concentration not listed) | hit rate 0.17% among 300,000 | AID 1554;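 active = replicate mean above 50%; inconclusive = above 50% but judged a plate artefact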;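 also: 50 nL library stock added to about 25 µL; numbers are from one replicate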
Mtb hypoxia inh: Mtb hypoxia fluorescent reporter inhibition | M. tuberculosis hypoxia-regulated fluorescent reporter, fluorescence | fluorescence inhibition, % (no concentration beside the values) | hit rate 0.1% among 300,000 | AID 1159583;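 active = 35 to 45% if threefold the growth effect, above 45% if 1.5-fold the growth effect; inactive = the rest, general growth blockers included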;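 also: wells of about 50 µL received 100 nL stock; 0% = vehicle wells and 100% = reference inhibitor wells; whole bacteria with a GFP reporter of the hypoxia response; strong numbers were not always called active; many hits fall short of the cut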
Mtb hypoxia inh growth: further read-out of Mtb hypoxia inh, marked with its call; growth inhibition, %; measured here: M. tuberculosis growth (absorbance);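 0% = vehicle and 100% = reference antibiotic; read after six days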
Active calls of the source: *; ? = inconclusive; · = not tested or not shown; & = joins results of further samples. Compounds as they come; about 4.1% have a hit in one of these screens.

Under each structure: RN4220 kill	PrP 5UTR inh	ugtP null kill	Autofluor counter	BJeLR viability	Mtb hypoxia inh	Mtb hypoxia inh growth
> CCOC(=O)c1cc2c(=O)n3ccccc3nc2n(C(C)C)c1=NC(=O)c1c(-c2c(F)cccc2Cl)noc1C
→ -3.5	14	-25	2502	-21	-5	-11
> CC1=CC(C)(C)Nc2ccccc21
→ 5.1&-2.1	0&28	7&6	5346&1520	1	7	8
> COc1ccc(C(=O)NC(=S)NNC(=O)COc2ccccc2)cc1
→ 46	-18	14	2964	6	4	3
> COc1ccc(NN=Nc2nc3c([nH]2)c(=O)n(C)c(=O)n3C)cc1
→ 8.9	-16	9	4238	-4	2	4
> CC1CCN(C(=O)c2ccc([N+](=O)[O-])o2)CC1
→ 10	-1	7	2976	-4	19	10
> O=S(=O)(c1cccc(S(=O)(=O)N2CCOCC2)c1)N1CCCCC1
→ -0.6	-7	3	15035	-4	4	-2
> COc1ccc(CCNS(=O)(=O)c2cn(C)nc2C)cc1
→ ·	-22	·	4351	-5	·	·
> CCOc1ccccc1N(CC(=O)Nc1cc(OC)ccc1OC)S(C)(=O)=O
→ 0.2	-6	-10	3088	3	-4	13
> CCCN=Cc1sc2ccc(OCC)cc2c1O
→ 2.8	-80	13	8870	-4	22	32
> CCCOc1ccc(NCC(=O)Nc2ccc(C)cc2C)cc1
→ 1.0	-21	-16	?	-2	6	20
> Cc1ccccc1C(=O)c1cccn1CC(=O)N1CCCCC1
→ -0.2	-6	2	6471	-7	3	-6
> CN(CC(=O)N1CCN(c2ccccn2)CC1)S(=O)(=O)c1ccc(Cl)cc1
→ 2.8	-15	3	4183	-5	-8	11
> Cc1ccc(N/N=C/c2ccc3c(c2)OCCO3)cc1Cl
→ ·	-26	·	2331	3	·	·
> CCC(C)[C@@H](C(=O)N1CCNCC1)n1cc(CCCN=C(N)N)nn1 (stereo partly specified)
→ ·	-19	·	4029	0	·	·
> O=C(CCn1c(=O)[nH]c2ccsc2c1=O)NCCc1ccc(Cl)cc1
→ -0.9	-4	2	9813	-5	4	11
> O=C(CCSc1nnc(-c2ccncc2)o1)Nc1cccc2ccccc12
→ 3.1	-9	-4	?	5	3	2
> O=C(COC(=O)c1ncc(Cl)c(Cl)c1Cl)NC(=O)NCc1ccccc1
→ -0.8	-12	1	4436	-3	9	3
> CC(=O)c1c(C(C)=O)c(C)n(-c2ccc(C)c(NC(=O)c3ccccc3Cl)c2)c1C
→ 2.5	-3	-1	16183*	3	7	9
> COc1ccc(-n2c(O)c(/C=C3\C=Nc4ccccc43)c(=O)[nH]c2=O)cc1
→ 2.8	-13	9	3919	-3	7	1
> COC(=O)c1ccccc1S(=O)(=O)N1CCC(C(=O)OCc2ccc([N+](=O)[O-])cc2)CC1
→ 1.2	-3	3	5006	-11	1	6
> CC(C)CC(C(=O)NC1CCCCC1)N(Cc1ccccc1)C(=O)c1snc(C(N)=O)c1N (stereo unspecified)
→ 0.3	-4	10	3085	1	1	-10
> Cc1c(C(=O)OCC2CCCO2)[nH]c2c1C(=O)CC(c1ccco1)C2 (stereo unspecified)
→ 0.8	-32	-10	4397	33	·	·
> C=CCOc1ccccc1C(=O)/C=C1/C(=O)Nc2ccccc21
→ 73	·	66	4116	2	10	9
> OCCN1CCN(c2ncnc3sc(-c4ccccc4)cc23)CC1
→ 2.2	-8	-6	5008	14	-3	3
> O=C(/C=C/c1cccc([N+](=O)[O-])c1)NCCSCc1ccc(Cl)cc1Cl
→ -10	-2	-19	2474	-2	-1	-11
> CN(C)c1ccc(C(CNS(=O)(=O)c2ccc(F)c(F)c2)c2c[nH]c3ccccc23)cc1 (stereo unspecified)
→ -3.6	-26	-29	9795	5	-4	7
> COc1ccc2c(c1)c(C(O)CN1CCC3(CC1)OCCO3)c(C)n2C (stereo unspecified)
→ -3.7	·	2	·	-3	-9	-2
> CCn1c(CNC(=O)Cc2ccc(OC)cc2)nnc1SCC(=O)NC1CCCCC1
→ 1.0	-12	-1	9388	-5	-17	-5
> COc1ccc(CNC(=O)CCCOc2cc(=O)n(C)c3ccccc23)cc1
→ 3.6	-15	6	4257	5	4	3
> COc1ccc(O)c(C=NN2CCCCC2)c1
→ 6.7	·	8	·	·	-4	0
> c1ccc(Nc2nc(CSc3ncn[nH]3)cs2)cc1
→ 2.1	-74	1	4341	2	2	11
> Nc1c(Cl)c(Cl)nc(C(=O)NN=Cc2ccco2)c1Cl
→ 3.2	·	0	·	·	1	4
> CCN1CCN(c2ccc(NC(=O)c3ccco3)cc2)CC1
→ 1.4	-53	6	6242	-1	9	-9
> CCN1CCCC1CNC(=O)C1c2cc(OC)c(OC)cc2C(=O)N(C)C1c1cccnc1 (stereo unspecified)
→ 0.0	-6	5	4269	-2	5	8
> CC(C)Oc1cccc(C(=O)C2CCCN(S(C)(=O)=O)C2)c1 (stereo unspecified)
→ 2.0	10	3	4464	-3	19	6
> CC(/C=C/c1ccc(O)cc1)=NNc1ccccc1
→ 5.7	-4	9	2811	·	12	9
> CCOc1ccc(N2CC(C(=O)N3CCCCCC3)CC2=O)cc1 (stereo unspecified)
→ -1.5	-5	12	3131	-3	4	-2
> Cn1c(SCC(=O)NC2CCCCCC2)nnc1-c1ccco1
→ 4.4	-14	13	5516	5	-10	-3
> O=C(Nc1ccc2nc(-c3ccco3)c(-c3ccco3)nc2c1)N1CCCCCC1
→ 12	·	-26	·	12	7	9
> COC(=O)c1cc(Cl)cc(Cl)c1OS(=O)(=O)N(C)C
→ 2.6	9	6	2547	-11	3	6

Reformatted: entries from further up.
O=C(CCn1c(=O)[nH]c2ccsc2c1=O)NCCc1ccc(Cl)cc1
  RN4220 kill: -0.9 | PrP 5UTR inh: -4 | ugtP null kill: 2 | Autofluor counter: 9813 | BJeLR viability: -5 | Mtb hypoxia inh: 4 | Mtb hypoxia inh growth: 11

COc1ccc(CCNS(=O)(=O)c2cn(C)nc2C)cc1
  RN4220 kill: · | PrP 5UTR inh: -22 | ugtP null kill: · | Autofluor counter: 4351 | BJeLR viability: -5 | Mtb hypoxia inh: · | Mtb hypoxia inh growth: ·

Later entries.
Under each structure: RN4220 kill	PrP 5UTR inh	ugtP null kill	Autofluor counter	BJeLR viability	Mtb hypoxia inh	Mtb hypoxia inh growth
> CCOc1ccccc1NC(=O)COc1coc(CN2CCc3ccccc3C2)cc1=O
→ 1.2	-13	13	4927	-7	8	1
> O=C(CS(=O)(=O)c1ccccc1)c1cc2cc(F)ccc2oc1=O
→ 6.5	-8	-3	5874	2	-3	7
> COc1ccc(NC(=O)c2cccc(OS(=O)(=O)N(C)C)c2)cc1
→ -0.1	-30	3	2332	1	-16	14
> O=c1[nH]c2ccc(Cl)cc2c(-c2ccccc2)c1N1CCN(c2ccccn2)CC1
→ -2.7	-39	-20	7321	0	-4	-10
> COc1ccccc1/C=C\C=Nn1c(-c2ccc(Cl)cc2)n[nH]c1=S
→ 17	·	-20	·	·	7	10
> Cc1c(C)c2c(OCC(=O)NCc3ccco3)cc3c(c2oc1=O)CCC(C)(C)O3
→ -0.3	-12	2	4183	-4	·	·
> c1ccc2[nH]c(C3CC3)nc2c1
→ 2.5	5	3	4849	2	3	-4
> COc1cccc(NC(=O)CCC2CCN(C(=O)c3ccc(C(C)=O)s3)CC2)c1
→ 1.3	-14	4	5396	6	5	-9
> Cc1cc(OC(=O)c2c(Cl)cc(Cl)cc2Cl)nc(C)n1
→ -5.2	0	-11	16417*	0	-7	-10
> Cc1cccc(OCC(=O)OCC(=O)Nc2sccc2C(N)=O)c1
→ 6.0	·	8	·	·	6	-5
> CCOc1ccc(N=NC2C(=O)N(C(N)=S)N=C2C)cc1 (stereo unspecified)
→ 0.8	-71	-5	3267	-5	4	1
> Cc1ccccc1OCCNc1cc(N2CCCCC2)ccc1[N+](=O)[O-]
→ -4.6	-21	-8	4484	15	·	·
> NC1=NC(=O)CC(C(=O)NCc2ccccc2)S1 (stereo unspecified)
→ 1.7	3	6	4662	1	·	·
> COc1ccc(C)cc1S(=O)(=O)NCCc1ccccc1
→ 3.6	-48	4	11753	-3	2	13
> CCOC(=O)c1ccc(NC(=O)Cc2coc3cc4c(cc23)CCC4)cc1
→ -20	12	-2	2090	-8	9	6
> CCN1CCN(Cc2ccc(NC(=O)c3ccc(C)c(NC(=O)C4=NN(c5ccccc5)C(=O)C4)c3)cc2C(F)(F)F)CC1
→ 8.4	-9	-8	3457&3638	5	-1	-4
> NC(=O)C1CCN(C(=O)OCc2ccccc2)CC1
→ -3.3	-15	-7	3038	-10	6	11
> COc1cc(OC)c(S(=O)(=O)NC(C)C)cc1C(=O)O
→ 2.0	-13	13	5590	-3	-2	-1
> CC1CN(C(=O)c2cc3ccccc3cc2O)CC(C)O1 (stereo unspecified)
→ 4.9	-16	6	5454	0	6	-1
> CCOc1ccc(-c2cnc3ccccc3n2)cc1
→ 4.4	60*	-4	3836	-1	4	10
> CCn1c(SCC(=O)Nc2nc(C)cs2)nnc1-c1ccoc1C
→ 1.4	-17	1	8516	-14	8	9
> COc1ccc(C(=O)NCc2nnc(SCC(=O)NC3CCCC3)o2)cc1
→ 0.7	-13	1	5639	2	11	2
> CCN(C(=O)CSc1cccc[n+]1[O-])C1CCCCC1
→ 4.7	-20	3	3906	·	9	3
> Cc1occc1C(=O)NN=Cc1ccc(N(C)C)cc1
→ 2.1	·	4	·	·	-3	3
> O=C(NC1CCSc2ccccc21)c1cccc(Cl)c1 (stereo unspecified)
→ 6.3	-7	6	6377	-2	5	5
> Cc1ccc(NC(=O)c2c(NC(=O)CCC(=O)O)sc3c2CCCCC3)cc1
→ 8.1	-27	9	4835	6	3	-1
> O=C(CNC(=O)c1sc2ccccc2c1Cl)NCc1ccc(F)cc1
→ -1.2	-4	2	?	-1	4	-2
> CCNC(=S)Nc1cccc(S(=O)(=O)Nc2ccccc2OC)c1
→ 8.4	-14	2	3412	3	4	2
> COC(=O)C1=C(N)OC2=C(C(=O)CC(C)(C)C2)C1c1cccnc1 (stereo unspecified)
→ 1.1	-15	-1	3238	-4	4	6
> COc1cc(/C=C/C(=O)OCC(=O)NC(=O)NC(C)C)cc(OC)c1OC
→ ·	-9	·	3867	6	·	·
> CC1(C)c2ccccc2C(=O)c2ccccc21
→ 5.2	-32	4	4152	·	6	7
> Cc1cc(OCC(=O)N[C@H](C(=O)O)c2ccccc2)c2c3c(c(=O)oc2c1)CCC3
→ 4.0	-44	-16	5961	0	·	·
> C#CCNc1ccncc1S(=O)(=O)NC(=O)NC(C)C
→ 0.5	-14	1	5669	4	·	·
> O=C(N/N=C/c1ccc(Br)s1)c1ccco1
→ ·	-43	·	4727	1	·	·
> COc1ccc(C2CC(c3ccccc3)=NN2C(=O)COC(=O)c2cnc(Cl)c(Cl)c2)cc1 (stereo unspecified)
→ 6.0	-8	-21	2324	-3	0	1
> CN1C(=O)C(O)(CC(=O)c2ccncc2)c2ccccc21 (stereo unspecified)
→ 4.1	-9	6	3232	1	·	·
> COc1ccc(-c2nc(CN3CCC(C(=O)N4CCc5ccccc54)CC3)c(C)o2)cc1OC
→ -14	-11	-8	7120	-18	-4	21

Screening data (PubChem BioAssay)
